Screens as filed in PubChem.
VDR inhibitor: inhibitors of human vitamin D receptor | P11473 | VDR-SRC2-3 peptide fluorescence polarization, 2 h | Potency, µM, inactives show max response, negative = inhibition, usual class: inhibitors | actives 0.93% (n = 400,000) | AID 504847; active = well fitted inhibition curve with a large enough effect; inconclusive = small, poorly fitted or top-dose-only effect, or another doubt; inactive = no such curve, though single readings can be large or run the other way; note: series mostly up to about 120 µM
Target sequence (P11473 whole entry, looked up): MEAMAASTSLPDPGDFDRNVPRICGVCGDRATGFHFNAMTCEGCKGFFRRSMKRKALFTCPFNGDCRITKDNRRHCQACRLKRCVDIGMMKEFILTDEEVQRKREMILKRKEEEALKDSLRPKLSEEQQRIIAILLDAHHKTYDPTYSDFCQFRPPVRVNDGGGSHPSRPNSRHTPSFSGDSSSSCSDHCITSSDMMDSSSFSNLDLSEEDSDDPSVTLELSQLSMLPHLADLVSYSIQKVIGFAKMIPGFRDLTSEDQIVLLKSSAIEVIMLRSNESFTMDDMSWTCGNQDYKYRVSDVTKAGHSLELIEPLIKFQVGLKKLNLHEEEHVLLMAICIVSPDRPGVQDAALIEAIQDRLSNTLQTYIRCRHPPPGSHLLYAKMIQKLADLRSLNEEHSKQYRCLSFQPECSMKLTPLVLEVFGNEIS
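Measured by FP: displacement of SRC2-3 coactivator peptide from VDR by library compounds, following a two-hour ambient incubation.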
Numbers without * were called inactive; u = inconclusive. % is set by controls: 0 for no effect and ±100 for the full control effect; potency is the fitted concentration of half-maximal effect. Some of the compounds tested; the hit share may differ from the screen's.

VDR inhibitor,Structure
14%,COc1cccc(CNC(=O)C2CCCCN2S(=O)(=O)c2ccc(F)cc2)c1 (centres undefined)
-8%,CCCCNc1nnc(SCC(=O)N2CCN(S(=O)(=O)c3ccc4ccccc4c3)CC2)s1
-5%,O=C(CN1C(=O)CCC1=O)Nc1nc(-c2ccc(Oc3ccccc3)cc2)cs1
-12%,CN1CCN(S(=O)(=O)c2ccccc2)C(c2ccccc2)C1 (centres undefined)
20%,Cc1cccc(N2C(=N)SCC2=O)c1C
-20%,COc1ccc(Cn2ccnc2)cc1[N+](=O)[O-]
-10%,Cc1c(C(=O)N2CCc3ccccc32)oc2c1C(=O)CC(C)(C)C2
-29%,Cn1c(-c2ccccc2)c(/C=N/NC(=O)c2ccc(O)cc2)c2ccccc21
-3%,CCC(=O)NC1(Cc2ccc(O)cc2)CCCCC1
-10%,CCOc1cc(C(=O)Nn2cnnc2)cc(OCC)c1OCC
-12%,COc1ccc(CN(C)C(=O)Cn2ccc(N)nc2=O)cc1OC
-11%,Cc1cc(S(=O)(=O)N2CCOCC2)ccc1OCC(=O)Nc1ccccc1C(F)(F)F
-14%,O=C(CSc1nncs1)Nc1cc(S(=O)(=O)N2CCOCC2)ccc1N1CCCC1
5%,COc1ccc(-n2c(=O)c3ccc(C(=O)NCc4ccc(C)cc4)cc3n(CC(=O)Nc3ccc(C)cc3)c2=O)cc1
-22%,CCN(c1ccccc1)S(=O)(=O)c1ccc(C(=O)Nc2cc(C)ccn2)cc1
-23%,Cc1ccc2c(c1)[C@@H]1[C@H](CO2)[C@H](c2ccccc2)[C@@]2(C)C(=O)N[C@H](C)C(=O)N12
-25%,CN(C)/C=N/c1nc2nccc(-c3cccc(Cl)c3)n2n1
5%,Cc1noc(C)c1S(=O)(=O)N1CCCC(C(=O)NCC2CCCO2)C1 (centres undefined)
u,COC(=O)c1ccc(COc2ccc(/C=C/C(=O)c3ccc(OC)c(CSCC(=O)O)c3)cc2OC)cc1
7%,O=S(=O)(NCCOCC(F)(F)F)c1ccc2oc3ccccc3c2c1
-3%,CCOc1ccc(CCNC(=O)COC(=O)/C=C/c2ccccc2)cc1OCC
7%,Cc1ccccc1C(=O)NC(=S)NCC1CCCO1 (centres undefined)
-2%,c1ccc(-n2nnnc2Oc2ccc(-c3nnco3)cc2)cc1
1%,COc1ccccc1OCCC(=O)OCC(=O)Nc1ncc(Cl)cc1Cl
-2%,O=C(Nc1nnc(SCC(=O)N2CCCc3ccccc32)s1)c1ccccc1
-8%,CC(OC(=O)CCc1nc2ccccc2c(=O)[nH]1)C(=O)Nc1ccc2c(c1)OCO2 (centres undefined)
-8%,CCN(CC)C(=O)/C(=C/c1cn(S(=O)(=O)N(C)C)c2ccccc12)NC(=O)c1ccc(OC)cc1
6%,COC(=O)[C@H]1C[C@@H]1[C@H](NC(=O)c1cnccn1)c1ccccc1
-13%,Cc1noc(C)c1COc1ccc(C(=O)OCC(=O)Nc2ccc(S(N)(=O)=O)cc2)cc1
-2%,CCCC(=O)NC(NC1CCS(=O)(=O)C1)C(Cl)(Cl)Cl (centres undefined)
5%,Cc1ccc(S(=O)(=O)N(C)C)cc1NC(=O)COc1ccccc1C(=O)Nc1ccccc1
u,O=S(=O)(c1ccccc1)N1CCC(c2ccccc2)CC1
-4%,C=CCn1c(COc2ccc(F)cc2)nnc1SCC(=O)c1c[nH]c2c(CC)cccc12
1%,CC(C)(C)OC(=O)c1c(N)n(CCCN2CCCC2=O)c2nc3ccccc3nc12
-2%,COc1ccc(OCC(=O)N2CCN(C(=O)c3cccc(OC)c3)CC2)cc1
-12%,Cc1ccc(C2=NN(CC(=O)NCc3cccs3)C(=O)CC2)cc1
14%,COc1ccc2sc(-c3ccc(S(C)(=O)=O)cc3)c(C#CCO)c2c1
0%,Cc1ccc(C(=O)Nc2ccc3ccccc3c2)cc1
-14%,Cc1ccc(NC(=O)C(CC(C)C)NS(=O)(=O)c2ccc3c(c2)oc(=O)n3C)c(C)c1 (centres undefined)
-12%,Cc1cccc(C(=O)NCC(c2cccs2)N2CCOCC2)c1 (centres undefined)
13%,COc1ccccc1COC(=O)c1cccc(S(=O)(=O)N2CCCC2)c1
-23%,COc1ccc(CCC(=O)Nc2sc(C(=O)N(C)C)c(C)c2C#N)cc1
7%,COc1ccc(N2CC(C(=O)Nc3ccccc3C(=O)NCc3ccco3)CC2=O)cc1 (centres undefined)
12%,CCOC(=O)C1CCCN(C(=O)CCCn2c(=O)c3cccn3c3cccnc32)C1 (centres undefined)
-20%,Cc1cc(NC(=O)Cn2cnc3sc(C)c(C)c3c2=O)no1
10%,Cc1cc(=O)oc(C)c1C(=O)NCCC1=CCCCC1
-11%,COc1ccc(-c2csc(NCCc3nc4cc(Cl)c(Cl)cc4n3CCCO)n2)cc1
0%,COc1ccc(-c2csc(N(CCCN3CCOCC3)C(=O)c3ccco3)n2)cc1
-11%,Clc1ccc(-c2[nH]ncc2N=Nc2ccccc2)cc1
7%,CCC(C)N(C(=O)COc1ccc(NC(C)=O)cc1)C1CCS(=O)(=O)C1 (centres undefined)
-9%,CCN(CC)CC(=O)N1N=C(c2cccs2)CC1c1ccco1 (centres undefined)
3%,CSc1nnc(C)c(/C=C/Nc2ccc(F)cc2)n1
-1%,CSc1ccccc1C(=O)N(C)C(c1ccccc1)c1ccccc1
-1%,CCOc1ccc2nc(NS(=O)(=O)c3ccc(NC(C)=O)cc3)sc2c1
20µM*,COc1ccc(N2CSC3=C(C#N)C(c4cccc(OC)c4OC)CC(=O)N3C2)cc1 (centres undefined)
0%,NS(=O)(=O)c1cnccc1NCCc1ccccc1
-9%,COc1cc(C(=S)N2CCCCC2)ccc1OCC(=O)Nc1ccccc1Cl
-6%,CCOC(=O)c1c(/N=C/c2cccc(C)c2O)sc2c1CCN(C)C2
2%,CNC(=O)COc1coc(CN2CCN(c3ccc(F)cc3)CC2)cc1=O
-6%,Cc1nc(C)n(CC(O)COc2ccc(C(=O)c3ccccc3)cc2)n1 (centres undefined)

Following part:
VDR inhibitor,Structure
13%,O=C(Nc1nc(-c2ccccc2)cs1)C1COc2ccccc2O1 (centres undefined)
1%,CCn1c(SCC(=O)N2CCCC2)nc2ccccc2c1=O
-10%,CN1CCN(C(CNC(=O)c2ccc(Br)o2)c2ccc(F)cc2)CC1 (centres undefined)
8%,COc1ccc(S(=O)(=O)Nc2ccccn2)c(C)c1C
-7%,Cc1cc(C)nc(SCC(=O)c2ccc(F)c(C)c2)n1
3%,O=[N+]([O-])c1ccc(/C=N/Nc2nc(N3CCCCCC3)nc(N3CCCCCC3)n2)o1
6%,O=C(Nc1ccc(C(=O)N2CCN(c3ccccc3)CC2)cc1)c1nsc2ccccc12
2%,CCc1ccc(/C=N/NC(=O)C(=O)NCCCN2CCOCC2)cc1
-8%,Cc1ccccc1OCC(=O)OCC(=O)c1ccc(-c2ccccc2)cc1
-1%,COc1ccc(-c2nnc3c4ccccc4c(-c4ccccc4)nn23)cc1
10%,CN(C(=O)c1ccccc1)c1ccc(OCC(=O)NC2CCS(=O)(=O)C2)cc1 (centres undefined)
-5%,Cc1nc2ncnn2c(C)c1CCC(=O)N1CCN(c2ccc(F)cc2)CC1

An excerpt of these results, with each value named.
> CN1CCN(C(CNC(=O)c2ccc(Br)o2)c2ccc(F)cc2)CC1 (centres undefined)
  VDR inhibitor: -10%

> O=C(Nc1nc(-c2ccccc2)cs1)C1COc2ccccc2O1 (centres undefined)
  VDR inhibitor: 13%

(list continues)
VDR inhibitor,Structure
8%,Cc1ccc(NC(=O)CN2CCN(S(=O)(=O)c3cccs3)CC2)cc1S(=O)(=O)N(C)C
-6%,O=C1N(CC(=O)N2CCc3ccccc32)CCN1Cc1ccccc1Cl
-1%,COc1ccc(CNC(=O)CC(C)S(=O)(=O)c2ccc3c(c2)NC(=O)CO3)cc1 (centres undefined)
-23%,O=[N+]([O-])c1ccc(S(=O)(=O)NCC(c2cccnc2)N2CCc3ccccc3C2)cc1 (centres undefined)
20%,Cc1ccc(NC(=O)N/C=C/c2ccccc2)cc1
-6%,CCOc1ccc(CCNC(=O)COC(=O)c2cccs2)cc1OCC
11%,COc1ccc(-c2nc3ccc([N+](=O)[O-])cc3o2)cc1
-25%,OCCC#Cc1c(-c2ccsc2)sc2ccccc12
10%,CCOC(=O)c1c(OCCO)nn(-c2ccc(Cl)cc2)c1N
-4%,CC(C)c1ccc(NC(=O)C(c2ccccc2)N2CCC3(CC2)OCCO3)cc1 (centres undefined)
3%,O=C(Cc1ccc(S(=O)(=O)N2CCOCC2)s1)Oc1ccc(F)cc1
-30%,Cc1ccc(C(=O)Oc2csc(=S)n2C(=O)c2ccc(C)cc2)cc1
8%,COc1ccc(CNC(=O)c2cccn2-c2nnc(N3CCCC3)s2)c(OC)c1
-19%,Cc1c(NC(=O)CSc2nc3ccc(Cl)cc3[nH]2)c(=O)n(-c2ccccc2)n1C
11%,COc1ccc(S(=O)(=O)N2CCOC2CNC(=O)C(=O)NCCCN2CCOCC2)cc1OC (centres undefined)
8%,CCCOc1ccc(Oc2nc(NCC(C)C)nc(N3CCOCC3)n2)nn1
11%,Oc1ccc(/C=C/c2nc(-c3ccccc3O)n(-c3ccccc3)n2)cc1
-5%,CCCCc1ccc(NC(=O)COc2ccc(C(=O)Nc3ccccc3OCC)cc2)cc1
-2%,Cc1ccccc1OC1C(=O)N(CC2CCCO2)C1c1ccc2c(c1)OCO2 (centres undefined)
-16%,Cc1[nH][nH]c(=O)c1C=NCc1cccnc1
27%,CCC1CCCCN1Cc1ccc(OC)c(C)c1C (centres undefined)
13%,Cc1ccc(NC(=O)c2cc(S(=O)(=O)N3CCCc4ccccc43)ccc2F)cc1F
-5%,CCOc1ccc(N2C(=O)CC(N3CCN(c4ccc(F)cc4)CC3)C2=O)cc1 (centres undefined)
16%,C=CCN(c1ccccc1)S(=O)(=O)c1cccc(C(=O)O)c1

A second format for 4 compounds above.
CCC1CCCCN1Cc1ccc(OC)c(C)c1C (centres undefined)
  VDR inhibitor: 27%

Cc1ccc(NC(=O)c2cc(S(=O)(=O)N3CCCc4ccccc43)ccc2F)cc1F
  VDR inhibitor: 13%

CCOc1ccc(N2C(=O)CC(N3CCN(c4ccc(F)cc4)CC3)C2=O)cc1 (centres undefined)
  VDR inhibitor: -5%

C=CCN(c1ccccc1)S(=O)(=O)c1cccc(C(=O)O)c1
  VDR inhibitor: 16%

Going on with the list.
VDR inhibitor,Structure
-11%,Cc1ccc2c(c1)-c1c(cnc3cc(-c4ccccc4)nn13)CO2
15%,COCCCNC(=O)CCCN1C(=O)CCn2nc(-c3cccn3C)cc21
10%,O=C(Cn1nnc2ccccc2c1=O)NC1CCCc2ccccc21 (centres undefined)
-5%,CNC(=O)NC(=O)COC(=O)c1cccc(S(=O)(=O)N2CC3(C)CC2CC(C)(C)C3)c1 (centres undefined)
9%,CC(=O)c1c(C(C)=O)c(C)n(-c2ccc3ncccc3c2)c1C
10%,COCC(C)n1c(C)cc(C(=O)CSc2nnc(Nc3ccccc3F)s2)c1C (centres undefined)
-7%,Nc1nnc(SCC(=O)c2cccc([N+](=O)[O-])c2)s1
-12%,C=C[C@H]1C(O[C@@H]2O[C@H](CO)[C@@H](O)[C@H](O)[C@H]2O)OC=C2C(=O)N3CCc4cc(OC)c(O)cc4[C@H]3C[C@H]21 (some centres undefined)
5%,Cc1nn(CC(=O)NC2CC2)c(=O)c2cc3cc(F)ccc3n12
16%,O=C(CNc1ccc(F)cc1)N/N=C1\CCc2ccccc21
6%,COc1cccc(-c2ccc3nnc(SCC(=O)N4CCOCC4)n3n2)c1
-17%,Cc1cc(SCC(=O)NCCCN2CCCC2=O)nc2ccccc12
27%,Cn1cccc1C(=O)NS(=O)(=O)c1ccccc1Cl
-11%,Oc1ccc(-c2nc3ncccn3c2Nc2ccc3c(c2)OCCO3)cc1
10%,CCCCOc1ccccc1C(=O)N(Cc1sccc1C)C1CCS(=O)(=O)C1 (centres undefined)
-4%,COC(=O)[C@@]1(Cc2ccc(OC)cc2)[C@H]2c3cc(C(=O)N(C)C)n(Cc4ccc(OC(F)(F)F)cc4)c3C[C@H]2CN1C(=O)c1ccccc1
1%,CN(c1ccc(C(=O)NCc2ccncc2)cc1)S(C)(=O)=O
6%,O=C(Nc1ccccc1Cl)C1CCCN(c2ncnc3c2nc2n3CCCCC2)C1 (centres undefined)
-20%,COc1ccc(N2C(=O)CC(Nc3ccc(C(=O)O)cc3)C2=O)cc1OC (centres undefined)

Sorted by value in VDR inhibitor (largest number first): some entries from above.
VDR inhibitor,Structure
27%,Cn1cccc1C(=O)NS(=O)(=O)c1ccccc1Cl
10%,CCCCOc1ccccc1C(=O)N(Cc1sccc1C)C1CCS(=O)(=O)C1 (centres undefined)
1%,CN(c1ccc(C(=O)NCc2ccncc2)cc1)S(C)(=O)=O
-4%,COC(=O)[C@@]1(Cc2ccc(OC)cc2)[C@H]2c3cc(C(=O)N(C)C)n(Cc4ccc(OC(F)(F)F)cc4)c3C[C@H]2CN1C(=O)c1ccccc1
-20%,COc1ccc(N2C(=O)CC(Nc3ccc(C(=O)O)cc3)C2=O)cc1OC (centres undefined)

Reformatted with bars between the fields: part of the list above
Molecule | VDR inhibitor
Cn1cccc1C(=O)NS(=O)(=O)c1ccccc1Cl | 27%
Oc1ccc(-c2nc3ncccn3c2Nc2ccc3c(c2)OCCO3)cc1 | -11%
CCCCOc1ccccc1C(=O)N(Cc1sccc1C)C1CCS(=O)(=O)C1 (centres undefined) | 10%
COC(=O)[C@@]1(Cc2ccc(OC)cc2)[C@H]2c3cc(C(=O)N(C)C)n(Cc4ccc(OC(F)(F)F)cc4)c3C[C@H]2CN1C(=O)c1ccccc1 | -4%
CN(c1ccc(C(=O)NCc2ccncc2)cc1)S(C)(=O)=O | 1%
